PABP FP inh – blocks human PABP binding to poly(A) RNA; AID 2014; inhibition, % at 35 µM; fluorescence polarization; 290,000 compounds, 1% hits;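 active = 50% or more with normal probe brightness, or confirmed in later tests; inconclusive = above 50% with abnormal brightness, or retests that disagree; inactive = below 50% or failed in later tests; about a fifth of its hits are not listed in these tables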;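 also: calls also rest on retests at 20 µM and on dose response follow-up; controls were probe without protein and protein plus probe with vehicle; some compounds called inactive have numbers as strong as hits; many hits fall short of the cut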
CSC inhib – cancer stem cell inhibition. cancer stem cell-like cells viability, luminescence. 300,000 compounds, 1.1% hits. inhibition, % at 7.5 µM;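 active = mean at 75% or more and at least half the replicates too; inconclusive = mean and replicates disagree; tested in HMLE shEcad cells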;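 also: 0% = median of negative and 100% = median of positive control wells; the first replicate is given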
eIF4H inh – inhibitors of RNA binding by human eIF4H. Q15056. eIF4H fluorescence polarization binding assay. inhibition, % at 35 µM. 290,000 compounds, 0.94% hits. AID 2012;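 active = 50% or more with normal probe brightness, or confirmed in later tests; inconclusive = above 50% with abnormal brightness, or retests that disagree; inactive = below 50% or failed in later tests; about a fifth of its hits are not listed in these tables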;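 also: calls also rest on retests at 20 µM and on dose response follow-up; 0% = protein and probe with vehicle and 100% = probe without protein; strong numbers were not always called active; many hits fall short of the cut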
UUG fidelity – modulators of start codon recognition fidelity in yeast | S. cerevisiae UUG-firefly luciferase reporter, luminescence/redox ratio | activity score, % at 18.7 µM | 350,000 compounds, 0.13% hits | AID 602363;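 active = replicate mean at a twofold rise or more, about +100% in these data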;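 also: firefly luciferase made from a UUG start codon reports start codon fidelity; reporter light over untreated wells divided by growth signal over untreated wells; some hits fall short of that in this replicate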
Rce1 inh – inhibitors of yeast Ras-converting enzyme; Q03530; yeast membranes, quenched prenylated peptide cleavage fluorescence; calls only; 290,000 compounds, 0.27% hits;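 active = fall in fluorescence gain of 50% or more versus controls, with final raw signal at or below 3038400; inconclusive = same 50% fall but final raw signal above 3038400; inactive = fall in fluorescence gain under 50%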;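 also: plate controls were neutral control wells for no effect and wells lacking membranes for full effect; tested at 10 µM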
Target sequence (Q03530 whole entry, looked up): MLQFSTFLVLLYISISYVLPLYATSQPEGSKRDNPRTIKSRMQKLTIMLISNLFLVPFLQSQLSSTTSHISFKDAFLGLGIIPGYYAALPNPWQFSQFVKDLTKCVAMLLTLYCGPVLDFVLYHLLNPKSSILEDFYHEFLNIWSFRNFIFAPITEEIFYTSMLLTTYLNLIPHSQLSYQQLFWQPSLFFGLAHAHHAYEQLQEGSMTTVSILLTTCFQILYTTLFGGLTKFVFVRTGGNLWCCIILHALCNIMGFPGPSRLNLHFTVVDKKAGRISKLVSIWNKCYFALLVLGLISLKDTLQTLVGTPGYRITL
MT1-MMP act inh – inhibitors of human MT1-MMP activation; P50281; 360,000 compounds, 0.061% hits; HT1080 RFP-PRO-GFP cells, GFP/RFP ratio fluorescence, overnight; percent of plate control window, DMSO zero; GFP/RFP ratio change, % at 20 µM;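 active = GFP/RFP ratio change of at least 30% with cell ATP level not reduced by more than half and red fluorescence within 50% of control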; also: strong numbers were not always called active
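Assay system: HT1080 RFP-PRO-GFP cells | Dosing: 20 µM single dose, 1% DMSO | Incubation: Cells overnight before dosing, compound overnight, 37 °C, 5% CO2 | Evaluation: GFP/RFP fluorescence ratio | Control set: DMSO-only wells and HT1080 RFP-L50D-GFP cell wells as references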
HIV Env fusion – inhibitors of HIV Env-mediated cell fusion; HeLa-JRFL Env/CEM21 cell fusion, luciferase; inhibition, % at 12.3 µM; 360,000 compounds, 1.1% hits;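 active = mean replicate inhibition score of at least 50 and every replicate individually at or above 50; inconclusive = only one of the two criteria met; inactive = mean below 50 and not all replicates reaching 50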;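 also: 0% = plate neutral controls and 100% = maraviroc near 300 nM; one replicate is shown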
eIF4H inh retest – also measured in eIF4H inh; calls as there; inhibition, %; compound at 20 µM; confirmation average;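 mean of two retest wells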
PABP FP inh retest – recorded beside PABP FP inh, whose call it bears; inhibition, %; compound at 20 µM; confirmation repeats;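 mean of two retest wells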
MT1-MMP act inh RFP – further read-out of MT1-MMP act inh, marked with its call; RFP signal change, %; measured here: RFP expression control read;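 0 = vehicle wells; hits needed this value within 50% of zero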
Numbers without * were called inactive; i = inactive; u = inconclusive; x = not tested or not shown. These rows are one share of the data (hit frequency here may not be typical).

SMILES	PABP FP inh	CSC inhib	eIF4H inh	UUG fidelity	Rce1 inh	MT1-MMP act inh	MT1-MMP act inh RFP	HIV Env fusion	others
COc1ccccc1N(CC(=O)NC1CCCCC1)S(=O)(=O)c1ccccc1	-6	x	-6	16	i	1	2	11
Cc1ccc2c(c1)C1CN(C)CCC1N2C(=O)COc1ccc(N(C)S(=O)(=O)c2cccs2)cc1 (stereo not given)	11	-3	-5	x	i	3	2	-9
CCOc1ccc(N(CC(=O)NC2CCCCC2)C(=O)CCC(=O)Nc2nccs2)cc1	6	x	7	-7	i	-1	4	-6
CCCCN1C(=O)C(CC(=O)NCCc2ccccn2)CC(C(=O)N(CC)CC)=C1C (stereo not given)	x	x	x	-20	x	2	3	23
Cc1ccc(C(=O)N2CCc3ccccc3C2)cc1S(=O)(=O)N1CCOCC1	-10	5	-5	2	i	1	3	x
CC(C)Cn1c(N)c(C(=O)COC(=O)c2cccc(Cl)c2)c(=O)n(C)c1=O	68	-10	-1	x	i	0	-12	6	eIF4H inh retest=-9;PABP FP inh retest=6
CCC(CO)n1cnnc1-c1ccncc1 (stereo not given)	-5	8	-14	-16	i	-3	-2	-25
COc1ccc(/C=C2\SC(=S)N(CC3CCCO3)C2=O)cc1 (stereo not given)	9	-5	-6	x	i	3	-3	0
CCOC(=O)CSc1[nH]c(=O)cc(C)c1C#N	7	-8	5	-35	i	3	-1	-20
Cc1cc(C)n(-c2ccc(C(=O)N3CCN(S(=O)(=O)c4cccc(Br)c4)CC3)cc2)n1	x	x	x	6	x	-4	-25	-7
CCn1c(N2CCN(S(=O)(=O)CC)CC2)nc2ccccc21	-2	-9	-1	x	i	-2	3	-9
CN(C)S(=O)(=O)c1ccc(C(=O)Nc2nc(-c3cc4ccccc4o3)cs2)cc1	-4	9	-2	-14	i	10	-21	36
COCc1c(C#N)c(NCc2cc(OC)c(OC)c(OC)c2)nc(C)c1[N+](=O)[O-]	5	3	28	x	i	6	-29	57*
O=C(CCS(=O)(=O)c1ccccc1)OCc1ccc([N+](=O)[O-])cc1	0	x	2	-10	i	-1	1	0
Cc1ccc(S(=O)(=O)CCC(=O)Nc2ccc3nc(C)sc3c2)cc1	5	0	-4	-21	i	2	-2	18
Cc1ccc(NS(=O)(=O)c2ccc(NC(=O)c3ccc(-c4ccccc4)cc3)cc2)c(C)c1	x	-2	x	-50	i	-1	-6	x
O=c1c2ccccc2nc(/C=C/c2cccnc2)n1Cc1ccccc1	-5	x	-12	x	i	-3	-7	-39
COc1cc(NC(=O)Cn2c(C)cc3ccccc3c2=O)cc(OC)c1OC	18	-3	-1	-13	i	3	3	-4
CN1CCN(C(=O)c2cc3c(s2)-c2ccccc2S(=O)(=O)C3)CC1	-10	22	-4	-20	i	3	4	-2
C#Cc1cccc(Nc2nc(NCCOC)nc3ccsc23)c1	x	x	x	-8	x	0	-15	25
COc1ccc(OCC(O)CN2CCOCC2)cc1 (stereo not given)	0	-1	5	-4	i	-2	-1	11
Cc1ccc(NC(=O)c2ccc(C(C)(C)C)cc2)cc1-n1cnnn1	10	-9	7	x	i	-6	-12	2
CC(C)(C)OC(=O)NCc1ccc(CNC(=O)c2nc[nH]c2C(=O)N2CCN(c3ccccc3)CC2)cc1	x	-17	x	-16	x	0	-9	-4
COc1ccc(/C=C/c2cc(C(F)(F)F)[nH]c(=O)n2)cc1OC	-9	3	8	x	i	-13	-12	14
CCn1c(NCc2ccccn2)nc2ccccc21	6	2	-2	-22	i	0	-2	-21

By substructure: the entries above containing a carbonyl joined to an NH by a bond outside any ring (nine)
SMILES	PABP FP inh	CSC inhib	eIF4H inh	UUG fidelity	Rce1 inh	MT1-MMP act inh	MT1-MMP act inh RFP	HIV Env fusion	others
COc1ccccc1N(CC(=O)NC1CCCCC1)S(=O)(=O)c1ccccc1	-6	x	-6	16	i	1	2	11
CCOc1ccc(N(CC(=O)NC2CCCCC2)C(=O)CCC(=O)Nc2nccs2)cc1	6	x	7	-7	i	-1	4	-6
CCCCN1C(=O)C(CC(=O)NCCc2ccccn2)CC(C(=O)N(CC)CC)=C1C (stereo not given)	x	x	x	-20	x	2	3	23
CN(C)S(=O)(=O)c1ccc(C(=O)Nc2nc(-c3cc4ccccc4o3)cs2)cc1	-4	9	-2	-14	i	10	-21	36
Cc1ccc(S(=O)(=O)CCC(=O)Nc2ccc3nc(C)sc3c2)cc1	5	0	-4	-21	i	2	-2	18
Cc1ccc(NS(=O)(=O)c2ccc(NC(=O)c3ccc(-c4ccccc4)cc3)cc2)c(C)c1	x	-2	x	-50	i	-1	-6	x
COc1cc(NC(=O)Cn2c(C)cc3ccccc3c2=O)cc(OC)c1OC	18	-3	-1	-13	i	3	3	-4
Cc1ccc(NC(=O)c2ccc(C(C)(C)C)cc2)cc1-n1cnnn1	10	-9	7	x	i	-6	-12	2
CC(C)(C)OC(=O)NCc1ccc(CNC(=O)c2nc[nH]c2C(=O)N2CCN(c3ccccc3)CC2)cc1	x	-17	x	-16	x	0	-9	-4

Further compounds follow.
SMILES	PABP FP inh	CSC inhib	eIF4H inh	UUG fidelity	Rce1 inh	MT1-MMP act inh	MT1-MMP act inh RFP	HIV Env fusion	others
C/C=C/C(=O)Nc1cccc(C2=NOC3(C2)C[C@H](C(N)=O)N(C(=O)/C=C/C)C3)c1 (stereo not given in full)	12	2	-9	-8	i	1	7	-14
COc1ccccc1-c1nnc(C2CCN(S(=O)(=O)c3ccc([N+](=O)[O-])cc3)CC2)o1	12	-4	3	14	i	1	-7	8
CCOC(=O)c1c(C)[nH]c(C(=O)OCCOc2ccccc2C)c1C	-4	x	-4	-24	i	0	1	-72
CC1=C(C#N)c2nc(N)c(C#N)c(C)c2/C1=C\c1ccc(OCC(=O)O)c(Cl)c1	37	-6	8	x	i	10	21	-11
COc1cc(-c2cc[n+](C)cc2)ccc1O	x	-15	x	-18	i	-3	-2	11
Cc1cccc(NS(=O)(=O)c2c(C)[nH]c(C)c2C(=O)N2CCCC2)c1	-10	-14	-3	-13	i	2	3	8
CCOC(=O)c1c(CN(CC)CC)oc2ccc(OC)cc12	-4	-9	-5	-6	i	-5	0	-13
Cc1cc(C(=O)NNC2CC(=O)N(c3ccc4ccccc4c3)C2=O)c(C)o1 (stereo not given)	-3	6	5	x	i	1	1	-3
CCCc1nc2oc3cc(OC)ccc3c(=O)c2c(=O)n1Cc1ccco1	34	-3	53	32	i	-16	7	-110	eIF4H inh retest=1;PABP FP inh retest=-6
Oc1ccc(Cl)cc1CNc1ccccn1	-4	17	-10	-5	i	1	-1	10
O=C(Nc1nnc(C2COc3ccccc3O2)o1)c1ccc(F)cc1 (stereo not given)	-3	28	6	x	i	5	2	-2
COc1ccc2c(C)cc(SCC(=O)NC3CCCCC3)nc2c1	x	x	x	-10	x	-7	-8	15
Nc1c(-c2cccs2)cnc2c(-c3ccc(F)cc3)cnn12	4	-2	6	-31	i	3	-6	-388
COc1ccc(Cl)cc1C(=O)NNC(=O)CN1C(=O)C2CC=CCC2C1=O (stereo not given)	2	0	-1	-13	i	-1	4	0
CN(C)C(=O)c1ccc(NC(=O)COC(=O)C2CCN(S(=O)(=O)c3ccc4c(c3)OCCO4)CC2)cc1	x	x	x	14	i	1	2	-5
O=C(COc1ccccc1)N1CCN=C1SCc1cccc(F)c1	-7	-6	1	-12	i	6	4	6
CC1CC(C)CN(c2ncnc3c2cnn3-c2ccc(Cl)cc2)C1 (stereo not given)	-7	73	0	-31	i	6	1	-172
COc1ccc([N+](=O)[O-])cc1NC(=S)NC(NC(=O)C(c1ccccc1)c1ccccc1)C(Cl)(Cl)Cl (stereo not given)	-13	9	-13	-16	i	-16	-33	x
CCOC(=O)C1CCCN(C(=O)CCC(=O)Nc2ccc3nc(N4CCOCC4)cc(C)c3c2)C1 (stereo not given)	6	-3	3	-10	u	2	-2	-50
COc1ccc(C(O)c2ncc(-c3cccc(OC)c3)[nH]2)cc1 (stereo not given)	x	x	x	-17	x	5	0	-13
Cc1ccc(C)c2nc3sc(C(=O)N4CCCc5ccccc54)c(N)c3cc12	4	5	4	-17	i	-213	-4	-2
Cc1ccc(C(=O)OCC(=O)NCc2cccc(Cl)c2)cc1S(=O)(=O)N1CCCCC1	x	x	x	-7	x	-1	-6	25
COc1cccc(CNS(=O)(=O)/C=C/c2ccc3c(c2)OCO3)c1	-5	9	9	-7	i	5	4	13
CCN(CC)S(=O)(=O)c1ccc(S(=O)(=O)N2CCN(CCC#N)CC2)cc1	-12	-1	-12	-12	i	3	-2	18
Cc1ccc(-c2nnc(Oc3cccc(C)c3)c3ccccc23)cc1	2	-10	1	-4	i	-2	-3	-114

Other results follow.
SMILES	PABP FP inh	CSC inhib	eIF4H inh	UUG fidelity	Rce1 inh	MT1-MMP act inh	MT1-MMP act inh RFP	HIV Env fusion	others
CC(Sc1nc(O)c(-c2ccccc2)c(=O)[nH]1)C(=O)Nc1ccc(Cl)cc1 (stereo not given)	-3	56	-7	x	i	-1	0	22
Cc1ccc(C(=O)CC2(O)C(=O)N(Cc3ccc4c(c3)OCO4)c3ccccc32)cc1 (stereo not given)	6	10	0	-21	i	5	-2	x
O=C(CSc1nnnn1C1CCCCC1)NCc1cccs1	8	1	1	x	i	2	6	23
NC(=O)Cc1ncc(C(F)(F)F)cc1Cl	-5	-20	-4	x	i	-1	6	1
CC(C)(C)OC(=O)NCCC(=O)N/N=C/c1cccc2cccnc12	2	-2	9	12	i	2	4	-19
Cc1ccc(CN(C)c2nc(-c3cccnc3)nc3ccccc23)o1	11	-8	10	7	i	1	0	3
Cc1ccc(N(CC(=O)N2CCc3ccccc32)C2=NC(=O)CS2)cc1	-2	-8	-5	-8	i	-1	4	19
Cc1occc1-c1nnc(SCC(=O)c2ccc(F)cc2)n1Cc1ccco1	18	x	3	-15	i	1	-1	x
CCc1ccc(OC)c(S(=O)(=O)Nc2ccccc2C)c1	-8	-12	-9	-15	i	-1	-3	x
CCOC(=O)CSc1nnc(-c2ccncc2)o1	-2	-9	-12	7	i	7	3	x
O=C(NCc1ccc(F)cc1)c1cc(C2CCCCN2C(=O)c2ccc(Cl)cc2)on1 (stereo not given)	x	x	x	-13	x	-2	-13	4
COc1cc(Cl)cc2c1Sc1ccccc1/C2=C/CCN(C)C	5	63	-9	1	i	-15	-7	x
COCCN(CCOC)C(=O)c1cc2c(=O)n3ccccc3nc2s1	7	-12	-6	-3	u	-1	0	-37
Cc1cc(C)nc(NC(=O)c2ccc(Br)cc2)n1	-10	-20	9	-13	i	3	7	37
c1ccn2c(SCc3ccc4c(c3)OCCO4)nnc2c1	-6	-3	10	-5	x	2	4	2
Cc1ccc(-c2csc3nc(C)n(N)c(=O)c23)cc1	56	3	0	-13	i	-5	-4	-8	eIF4H inh retest=4;PABP FP inh retest=-7

High-throughput results deposited in PubChem BioAssay by several laboratories.
